AID504770 = growth inhibitors of E. coli YBA685 in a screen for V. cholerae RctB (chromosome II replication) inhibitors. AID 504770. hit rate 0.27% among 130,000. E. coli YBA685 rctB-dependent plasmid, OD600 growth, 3 h; active compounds read low. z-score (concentration not given with the values);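 active = z-score under -2 on both plates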;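 note: wells of about 30 µL received 100 nL stock; score is relative to mean and SD of the test wells; the first replicate is given; strong numbers were not always called active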
CapD inh = inhibitors of Bacillus anthracis CapD enzyme. purified CapD enzyme, fluorescence intensity read-out; active compounds read low; some hits fall short of the stated cut. z-score (test concentration not listed). hit rate 0.23% among 140,000. AID 492967;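 active = z-score under -4 in either of two replicates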;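 note: stock transfer was 100 nL into about 40 µL; score is relative to mean and spread of the plate; one replicate is shown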
Active calls of the source: *; · = not tested or not shown; & = joins results of further samples.

structure	AID504770	CapD inh
O=C1CCCCCN1Cc1nnc(SCCN2C(=O)c3ccccc3C2=O)o1	-0.25	·
Nc1nc2ccccc2n1CCOc1ccccc1	-0.7	0.22
S=C(Nc1ccccc1)N1CCNC2NCCN(C(=S)Nc3ccccc3)C21 (stereo not given)	-0.95	0.08
COc1ccc(CN(C)c2nc(C(F)(F)F)nc3ccccc23)c(OC)c1	1	·
COc1ccc(Br)cc1C1=N/C(=C\c2ccc(OC)c(OC)c2OC)C(=O)O1	·	-0.425
CCOc1ccccc1NC(=O)CSc1ccc(C)cc1	-0.6	-0.005
NC(=O)C(Cc1c[nH]c2ccccc12)NC(=O)OCc1ccc(F)cc1 (stereo not given)	·	-0.445
Cc1nc2ccccc2c(=O)n1-c1ccc(F)c(NC(=O)c2ccco2)c1	0.15	·
CCOC(=O)N(c1ccccc1)P1OCC(C)(C)CO1	·	-0.425
CCOC(=O)/C=C1\NC(C)(C)Cc2ccccc21	·	-1.79
CCC(Sc1nc2ncccc2[nH]1)C(=O)NCc1ccco1 (stereo not given)	-1	-0.15
Cc1nc(N)nc(C(F)(F)F)c1Br	-1.4	3.04
COc1cscc1C(=O)NNC(=O)OCC#Cc1ccccc1	·	-0.485
COc1ccccc1C1CC(c2c(-c3ccccc3)c3cc(Cl)ccc3[nH]c2=O)=NN1C(=O)CCCC(=O)O (stereo not given)	·	0.885
COc1cccc(/C=N/NC(=O)c2ccccc2Oc2ccccc2)c1OC	·	1.12
CCCCC(=O)N1c2ccc(C)cc2-c2c(ssc2=S)C1(C)C	·	-1.21
CCCNC(=O)Oc1noc2ccc(Cl)cc12	0.6	0.165
COc1cc(C2C3=C(CC(C)(C)CC3=O)Nc3c2ccc2ccccc32)cc(Br)c1O (stereo not given)	·	42.9
CCOC(=O)C1=C(c2ccccc2)NC(SCC(=O)Nc2ccc(F)cc2)=C(C#N)C1c1ccco1 (stereo not given)	1.75	-0.265
COc1nc(OCCNS(=O)(=O)c2ccc(C)cc2)nc(N(C)C)n1	-0.75	0.325
CC(CN(C)Cc1ccccc1)OC(=O)c1cc2ccccc2o1 (stereo not given)	-0.25	0.265
O=C(O)c1csc2c1CCCC2	-1.15	·
CC(=O)N1CCOc2cc(S(=O)(=O)NCC3CCC(C(=O)Nc4cccc(C)c4)CC3)ccc21 (stereo not given)	-0.5	-0.895
CC1(C)C/C(=N\O)C(C(O)c2ccccc2)C(C)(C)N1 (stereo not given)	-1.1	·
CC(Nc1ncnc2sc3c(c12)CCC3)C(=O)O (stereo not given)	-1	·
COc1ccc(C2C(C(=O)OCC3CCCO3)=C(C)NC3=C2C(=O)CCC3)cc1OCc1ccccc1 (stereo not given)	·	16.3
O=C(Nc1cc(C(F)(F)F)cc(C(F)(F)F)c1)C12CC3CC(CC(C3)C1)C2	0.05	0.42
CC(C)(C)C(=O)/C(C#N)=C/c1ccc(-c2ccc(F)cc2)o1	0.15	·
CSc1nsc(SC)c1NC(=O)OCC1CCCO1 (stereo not given)	-0.25	0.09
CCOC(=O)Nc1ccc2c(c1)N(C(=O)N(C)C)c1ccccc1CC2	1.4	0.18
CC(C)/C=N/N1C(N)=C(C#N)C(C#N)(C#N)C1C(C)C (stereo not given)	-0.45	0.08
CC1=NN(c2cccc(C(=O)O)c2)C(=O)/C1=C\c1ccc(-c2ccc(Cl)c(C(=O)O)c2)o1	·	-0.57
CC(Nc1ccc(Br)cc1)C(=O)Nc1cccc(Cl)c1Cl (stereo not given)	-0.05	0.84
C=C(C)C1CC=C(COC(=O)NC(Cc2c[nH]c3ccccc23)C(=O)OCc2ccccc2)CC1 (stereo not given)	·	-1.01
CC(C)COC(=O)NCC12C=CC(O1)C1C(=O)N(c3ccc(Cl)cc3)C(=O)C12 (stereo not given)	·	-0.345
O=C(COC(=O)CSc1nc(-c2ccccc2)cc(-c2ccccc2)n1)NC1CCCCC1	·	-0.18
CCOC(=O)C1C(=O)N(C)C2(C)CC1c1ccccc1O2 (stereo not given)	-0.6	·
CC1=NOC2(O)CC3C(C12)C3(C)C (stereo not given)	-0.25	-0.015
CCOC(=O)c1c(-c2ccc(Cl)cc2)nn2c1NCN(CCc1ccccc1)C2	-0.75	1.24
Cc1ccc(NC(=O)c2ccc3nc(N4CCOCC4)sc3c2)cc1	-1.3	8.99
O=C(c1ccc(F)cc1)n1c(NCc2ccccc2)n[nH]c1=S	0.1	0.725
O=[N+]([O-])c1ccsc1NCc1ccccc1	·	-1.09
Cc1ccccc1-c1nnc(NC(=O)CC(C)C)s1	-0.25	·
COC(=O)C1C2C=CC3(CN(CCc4ccccc4)C(=O)C13)O2 (stereo not given)	-0.25	-0.045
Cc1ccc2c(c1)C(c1ccc(Cl)cc1Cl)CC(=O)N2 (stereo not given)	·	-0.095
CCc1ccc(Sc2cc(C(=O)NCc3cccnc3)c3ccccc3n2)cc1	0.3	-1.04
O=C(Nc1cc(C(=O)N2CCN(c3ccccc3)CC2)ccc1N1CC2CC(C1)c1cccc(=O)n1C2)c1ccc(F)cc1 (stereo not given)	·	-0.18
CC1(C)C(c2ccccc2)=NC(c2ccccc2)N1O (stereo not given)	-0.65	-0.295
Cc1ccc(C(=O)NCCN2CCCC2)cc1	-0.4	0.105
COc1cccc(-n2c(CNC(=O)OC(C)(C)C)n[nH]c2=S)c1	-1.15	·
O=C(CC1SC(=NC2CC2)NC1=O)Nc1ccc(Oc2ccccc2)cc1 (stereo not given)	0.75	·
CCCC1=NN(C(=O)/C=C/c2cccs2)C(=O)C1Cc1c(F)cccc1Cl (stereo not given)	-0.25	-1.31
COc1ccc(CC(=O)NC2CCN(Cc3nnnn3C(C)(C)C)CC2)cc1OC	-0.3	·
COc1ccc(C2(C(=O)NCCN3CCOCC3)CCCC2)cc1	0.25	0.365
CNc1ccc2cccc(O)c2n1	-3.3*	24.2
CC(C)C(=O)Nc1ccc(Cl)cc1	0.05	0.455
O=C(NNC1=NCCC1)C1CC1	0.15	·
CCc1ccc(N2C(=O)/C(=C/c3cc(Cl)c(O)c(OC)c3)C(=O)NC2=S)cc1	·	-1.69
CC(=O)Nc1ccc(C(=O)N2CCN(Cc3ccsc3)CC2)cc1	·	-0.57
S=C(Nc1cccc2ccccc12)N1CCOCC1	·	0.05

In another format: results already given.
Order of results: AID504770, CapD inh
COc1cc(C2C3=C(CC(C)(C)CC3=O)Nc3c2ccc2ccccc32)cc(Br)c1O (stereo not given)
 : ·, 42.9
COc1cscc1C(=O)NNC(=O)OCC#Cc1ccccc1
 : ·, -0.485
O=C1CCCCCN1Cc1nnc(SCCN2C(=O)c3ccccc3C2=O)o1
 : -0.25, ·
Nc1nc2ccccc2n1CCOc1ccccc1
 : -0.7, 0.22
COc1ccc(CC(=O)NC2CCN(Cc3nnnn3C(C)(C)C)CC2)cc1OC
 : -0.3, ·

Going on with the list.
structure	AID504770	CapD inh
O=C1c2ccccc2S(=O)(=O)N1Cc1ccccc1	·	0
COc1ccc(C(=O)Oc2cccnc2)cc1OC	1.2	0.065
CS(=O)(=O)c1ccc(C(=O)Nc2ccc3sccc3c2)cc1	-1.45	·
CCOC(=O)c1cc(CC)sc1NC(=O)c1cccnc1Oc1ccccc1	-0.1	-0.63
CC(=O)Nc1ccc(C)cc1[N+](=O)[O-]	·	-0.61
Cc1ccc(N2C(=O)CSC2c2cc3c(cc2Br)OCO3)cc1 (stereo not given)	·	-0.575
CCc1n[nH]c(=S)n1/N=C/c1c(C)nn(-c2cccc(Cl)c2)c1Cl	0.25	·
CC1CC(=O)N(Cc2ccccc2)c2ccccc2N1C=O (stereo not given)	·	-0.15
CSC1=N/C(=C\c2ccccc2O)C(=O)N1Cc1ccco1	-0.25	-1.52
C=CCn1c(NCc2ccc3c(c2)OCO3)nc2ccccc21	1.1	0.495
N#C/C(=C\Nc1ccc(F)c(Cl)c1)S(=O)(=O)Cc1ccco1	1.3	-0.775
Oc1ccccc1/C=N/c1ccnn1-c1ccccc1	0.15	-0.675
Cc1ccc(S(=O)(=O)CCc2nnc(NC(=O)c3ccc(C)c([N+](=O)[O-])c3)s2)cc1	·	-0.67
Cc1ccc(S(=O)(=O)n2nc(C(F)(F)F)c3cnccc32)cc1	-0.85	4.59
COc1ccc(/C=C2/N=C(SC)NC2=O)cc1OC	-0.3	-2.59
CCCOc1ccccc1/C=N/NC(=S)Nc1ccc(C)c(C)c1	·	2.69
CCN1CCCC1CNC(=O)c1nnc(Cc2ccc(F)cc2)o1 (stereo not given)	0.25	-0.765
O=C(COC(=O)Cc1cccc(C(F)(F)F)c1)Nc1ccccc1	-0.7	-0.1
COc1ccc(OC)c(NC(=O)C2CCCN2C(=O)C2CCC(C)CC2)c1 (stereo not given)	-0.7	-0.025
CCN(CC)CCCC(C)NS(=O)(=O)c1ccc(Cl)cc1Cl (stereo not given)	·	0.52
COc1ccc(CNC(=O)COc2cc(=O)n(C)c3ccccc23)cc1	-0.45	0.495
CC1CCc2c(sc3nc(CN(C)C)[nH]c(=O)c23)C1 (stereo not given)	-0.8	·
CCc1cccc(OCCCN2CCN(C)CC2)c1	1.65	-0.52
c1ccc2sc(SCCCN3CCCCC3)nc2c1	0&0.35	0.7
COc1ccc(OCC(=O)NC2CCCCC2)cc1	-0.35	0.515
Fc1cc2nsnc2cc1Cl	·	0.05
Cn1c(=O)c2c(nc3n2CC=NN3)n(C)c1=O	-0.2	·
Cc1cc(NC(=O)CNS(=O)(=O)c2ccc3nc(C)sc3c2)n[nH]1	1.6	-0.365
CCOc1cc(/C(O)=C(\C#N)c2nc3ccccc3[nH]2)cc(OCC)c1OCC	0	2.57
OC(CNC1CCCCC1)COc1ccc(-c2ccccc2)cc1 (stereo not given)	-0.1	-0.23
Cn1c(SCC(O)c2ccccc2)nnc1-c1ccc2ccccc2c1 (stereo not given)	2	1.78
COc1ccccc1N(C(=O)NCc1ccccc1)C1=NCC(C)S1 (stereo not given)	-0.25	-0.745
CCCNC(=O)Cn1nc(CC)n2c(cc3ccccc32)c1=O	0.75	3.06
Cn1[nH]c(=S)sc1=NCc1ccccc1	-0.85	0.185
Cc1ccc2c(C#N)cc(C)cc2c1	-1.35	8.27
Cc1nn(-c2ccc(F)cc2)c2sc(C(=O)NO)cc12	-1.8	·
CC1CN(S(=O)(=O)c2cccc(C(=O)O)c2)CC(C)O1 (stereo not given)	-0.35	0.275
CNC(=O)O/N=C1\CC(C)(C)Cc2csc(SC)c21	-0.05	-0.075
COc1ccc(-c2nc3ccc4ccccc4c3c3c2CCCC3)cc1	0.15	4.35
Cc1ccc(S(=O)(=O)C2CS(=O)(=O)CC2S(=O)(=O)c2ccc(C)cc2)cc1 (stereo not given)	-0.45	0.09
COC(=O)c1c[nH]n2c(=O)c3c(nc12)C(=O)N(Cc1ccccc1)C3	-0.4	65
Cc1ccc(S(=O)(=O)N2CC3CCCC2C3)cc1 (stereo not given)	0.8	0.01
O=C(O)C1C2C=CC(C2)C1C(=O)Nc1nc2ccc(Br)cc2s1 (stereo not given)	-1.1	0.09
Cc1nn(-c2ccccc2)c(Cl)c1/C=N/O	-1.25	-0.01
CCOc1cc(C=C2C(=O)NC(=O)NC2=O)ccc1OCCOc1ccccc1OC	·	-0.995
CCN1C(=O)S/C(=C/c2cccs2)C1=O	-0.3	-0.045
NC(=O)C1CCCN(C(=O)C(c2ccccc2)c2ccccc2)C1 (stereo not given)	-0.8	·
O=C(c1ccc2nonc2c1)N1CCN(C(c2ccccc2)c2ccccc2)CC1	-0.35	0.12
O=C1CC(N2CCCCC2CCO)C(=O)N1c1ccccc1 (stereo not given)	1.35	0.015
COc1nc(OC)nc(N2CCC(C(=O)NCC3CCCCC3)CC2)n1	0.85	·
CCCN1CN=C(Nc2nc(-c3ccccc3)c3cc(Cl)ccc3n2)NC1	-1.05	4.04
COc1ccc2c(=O)c(-c3csc(C)n3)coc2c1C	1.85	-0.135
Cc1sc2nc(CC(=O)N3CCCC3)[nH]c(=O)c2c1C	0.95	·
CCOC(=O)c1c(NC(=O)c2ccc(Cl)cc2)sc(C(=O)Nc2cc(C(F)(F)F)ccc2Cl)c1C	·	0.205
Cn1c(-c2ccccc2)c(C(=O)COC(=O)c2ccc(S(=O)(=O)NCc3ccco3)cc2)c2ccccc21	0.9	·
CCc1ccnc(NC(=O)CCCC(=O)O)c1	0.05	1.08
Cc1noc(C(=O)N2C(C)CCCC2C)c1Cl (stereo not given)	0.1	0.455
Clc1ccc(CN2CCN(c3nc4ccccc4s3)CC2)cc1Cl	·	0.17

Retrieved by compound from the entries so far (three):
structure	AID504770	CapD inh
CC1CN(S(=O)(=O)c2cccc(C(=O)O)c2)CC(C)O1 (stereo not given)	-0.35	0.275
Cc1ccc(S(=O)(=O)C2CS(=O)(=O)CC2S(=O)(=O)c2ccc(C)cc2)cc1 (stereo not given)	-0.45	0.09
Cc1ccc(S(=O)(=O)N2CC3CCCC2C3)cc1 (stereo not given)	0.8	0.01

Compound activity: PubChem, ICCB-Longwood Screening Facility, Harvard Medical School

Rows are unselected; about 0.39% have a hit in one of these screens.
